gsp antagonist – antagonists of gsp mutant (McCune-Albright syndrome). gsp-mutant cells, cAMP HTRF, 30 min; control for the full effect not named in the record. Potency, µM (series often up to 76.9 µM), inactives show at the top dose activity change, negative = inhibition, most hits filed as inhibitors. 340,000 tested, 0.4% active; active = falling curve of any shape with a large fitted effect; inconclusive = falling curve, mostly with a smaller effect; inactive = flat or rising curve; cell line not stated here;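 note: intracellular cAMP measured with PDE inhibitor Ro 20-1724 present during compound exposure; potency is the fitted concentration of half-maximal effect; % is set by controls: 0 for no effect and ±100 for the full control effect; nearly all actives have a fitted effect of over 65% in size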
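G418-selected cells were plated in DMEM/10% FBS for 16-24 h at 37C, then treated with compounds plus the PDE inhibitor […] (300 uM solution added) for 30 min at 37C. Intracellular cAMP was measured by HTRF after 30 min lysis at room temperature.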
TRPV1 PAM – enhances activation of the human vanilloid receptor TRPV1; potentiation, % at 8.33 µM; Q8NER1; TRPV1-expressing cells, Fluo-8 calcium influx, capsaicin EC20 potentiation; host cell line not named in the record; control for the full effect not named in the record; 320,000 tested, 0.02% active; active means potentiation above 80%; inconclusive means 30% to 80%; inactive means below 30%; note: 0% is about no effect
Target sequence (Q8NER1 whole entry, looked up): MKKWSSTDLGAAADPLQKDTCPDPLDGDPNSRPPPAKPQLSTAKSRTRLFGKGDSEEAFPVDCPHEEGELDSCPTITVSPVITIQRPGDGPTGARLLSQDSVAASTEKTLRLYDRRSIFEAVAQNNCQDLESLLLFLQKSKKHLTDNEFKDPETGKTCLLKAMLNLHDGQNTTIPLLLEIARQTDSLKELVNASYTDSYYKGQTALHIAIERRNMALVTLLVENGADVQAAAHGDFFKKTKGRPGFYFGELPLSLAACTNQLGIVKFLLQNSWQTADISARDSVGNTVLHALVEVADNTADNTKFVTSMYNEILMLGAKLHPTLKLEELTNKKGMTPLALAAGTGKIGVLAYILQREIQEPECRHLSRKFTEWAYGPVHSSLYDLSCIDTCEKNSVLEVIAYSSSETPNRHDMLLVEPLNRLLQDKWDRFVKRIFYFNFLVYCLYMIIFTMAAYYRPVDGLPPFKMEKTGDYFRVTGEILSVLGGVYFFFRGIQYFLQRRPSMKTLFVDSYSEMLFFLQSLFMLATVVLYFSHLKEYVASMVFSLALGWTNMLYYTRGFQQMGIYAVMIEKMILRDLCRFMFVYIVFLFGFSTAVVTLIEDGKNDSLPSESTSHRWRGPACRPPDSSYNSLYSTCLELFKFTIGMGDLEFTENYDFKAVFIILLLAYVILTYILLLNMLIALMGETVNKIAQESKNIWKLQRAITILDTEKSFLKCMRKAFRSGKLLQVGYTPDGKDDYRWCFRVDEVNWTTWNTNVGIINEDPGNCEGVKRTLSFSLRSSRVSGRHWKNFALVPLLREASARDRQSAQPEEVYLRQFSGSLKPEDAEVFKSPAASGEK
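TRPV1-expressing cells were cultured overnight at 35.5C and loaded with Fluo-8 calcium dye for 40 to 90 min at room temperature. After a 10 s baseline, compound was added and calcium influx was read kinetically for 3 min (ex 480/em 520 nm).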
TRPML1 inh – blocks the human TRPML1 channel | Q9GZU1 | TRPML1-inducible cells, Ca2+ dye fluorescence, FDSS; active compounds read low; inhibition of EC80 agonist-evoked calcium signal | activity change, negative = inhibition, % (no concentration beside the values) | 390,000 tested, 0.02% active | AID 624415; in the data active means activity change below about -50%; inconclusive means about -30% to -50%; inactive means above about -30%;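 note: stimulus is agonist 54-4 at its EC80 concentration; % is set by controls: 0 for no effect and ±100 for the full control effect; compound concentration not given in the record; the text of the record puts the active cut at -80%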
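Tet-induced TRPML1-DL cells loaded with Ca8 no-wash calcium dye were read kinetically on FDSS. Compound addition was followed by EC80 agonist 54-4 (4 uM final); inhibition was read over 110 s.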
ClpP mod – qHTS Assay for Activators of ClpP. ATP-dependent Clp protease proteolytic subunit (Bacillus subtilis (strain 168)), P80244. purified B. subtilis ClpP, FRET peptide cleavage, 20 min. Potency, µM (titrated, usually from 57.5 µM), for the others: at the top dose activity change, negative = active. 340,000 tested, 1.9% active. AID 651965, 2013; active = well fitted falling curve with a large enough effect; inconclusive = small, poorly fitted or top-dose-only effect; inactive = no such curve, though single readings can be large or run the other way; note: potency is the fitted concentration of half-maximal effect; the source files actives as falling curves though it sought activators and does not explain the sign; nearly all actives have a fitted effect of over 65% in size; many hits overshoot -100%
Target sequence (P80244 whole entry, looked up): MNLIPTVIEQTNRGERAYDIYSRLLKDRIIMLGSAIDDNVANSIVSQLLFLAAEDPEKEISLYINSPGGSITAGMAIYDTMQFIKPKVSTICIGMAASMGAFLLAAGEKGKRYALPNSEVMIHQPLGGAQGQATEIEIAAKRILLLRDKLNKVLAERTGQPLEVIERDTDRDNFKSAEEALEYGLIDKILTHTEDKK
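ClpP 10 microg/mL final, pH 8 Tris/KCl buffer with BSA, glycerol, Tween-20; compound pinned in; FRET-FV substrate; RT 20 min; Ex320/Em430; ΔFRET vs ADEP 5.8 microM, DMSO, no enzyme.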
Sfp inh – Sfp phosphopantetheinyl transferase inhibition; Q9F4F7; Potency, µM, for inactives: max response, negative = inhibition, usual class: inhibitors; Biochemical Sfp PPTase activity, qHTS; 310,000 tested, 3.5% active; active = well fitted inhibition curve with a large enough effect; inconclusive = small, poorly fitted or top-dose-only effect, or another doubt; inactive = no such curve, though single readings can be large or run the other way;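 note: the enzyme is Sfp with the accession as filed and its product quenches rhodamine fluorescence; potency is the fitted concentration of half-maximal effect; 0% = enzyme reaction without inhibitor and -100% = no enzyme wells; top concentration of the series not given in the record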
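With Hepes-Na pH 7.6 buffer containing 10 mM MgCl2, Sfp (15 nM) modified BHQ-2-YbbR (12.5 uM) using rhodamine-CoA (5 uM). Two reads 30 minutes apart at 525/598 nm yielded each well's rate.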
gsp agonist – agonists of gsp mutant (McCune-Albright syndrome); 340,000 tested, 0.13% active; gsp mutant cells, cAMP HTRF, 30 min; control for the full effect not named in the record; Potency, µM (series often up to 76.9 µM), inactives show at the highest dose activation (cAMP increase), hits mostly activators; active = well fitted activation curve with a large enough effect; inconclusive = small, poorly fitted or top-dose-only effect, or another doubt; inactive = no such curve, though single readings can be large or run the other way; cell line not stated here;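 note: phosphodiesterase inhibitor Ro 20-1724 added with compounds to block cAMP breakdown; potency is the fitted concentration of half-maximal effect; nearly all actives have a fitted effect of over 60% in size; about a fifth of the inactives were tested at one dose only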
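Cells in DMEM/10% FBS with G418 were pretreated with compounds in DMSO plus […] (300 uM stock) for 30 min at 37C. cAMP was measured by HTRF (cAMP-d2 plus anti-cAMP antibody-K) after 30 min at room temperature.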
Menin-MLL FL inh – menin-MLL binding inhibition, fluorescein peptide. FP activity change, % at 61.4 µM. Fluorescence polarization, fluorescein-MLL peptide displacement from menin. 290,000 tested, under 10 active; inconclusive = falling polarisation curve, or a change in total fluorescence; inactive = total fluorescence flat and polarisation flat or rising; no compound was filed as active; the % refers to the polarisation; negative = inhibition;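 note: % of control where 0% means no effect; inhibitors lower the polarisation; unlabelled MLL peptide was the positive control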
Active calls of the source: *; [ ] = remark or other dose.

`O=C(CSCc1cccc(Cl)c1)Nc1ccccc1-c1ccccc1` gave gsp antagonist -29%, TRPV1 PAM 1, TRPML1 inh 12, ClpP mod 0.7%, Sfp inh 9%, gsp agonist -17% and Menin-MLL FL inh 0.8.
`O=C(NNC1CC(=O)N(c2ccc(F)cc2)C1=O)c1cccnc1` (configuration not stated) gave gsp antagonist 14%, TRPV1 PAM -3, TRPML1 inh -18, ClpP mod 1.1%, Sfp inh 10%, gsp agonist -2%[15.4 µM] and Menin-MLL FL inh 1.8.
N#Cc1c(N)n(CCNC(=O)c2ccc(Cl)cc2)c2nc3ccccc3nc12 was read as gsp antagonist 0%, TRPV1 PAM -7, TRPML1 inh 15, ClpP mod 3.2µM*, Sfp inh -2%, gsp agonist -9% and Menin-MLL FL inh 11.
Screening O=C(CCc1nnc2ccc(NCc3ccco3)nn12)Nc1cc(F)ccc1F returned gsp antagonist 1%, TRPV1 PAM -2, TRPML1 inh -10, ClpP mod -2.9%, Sfp inh 13%, gsp agonist inconclusive and Menin-MLL FL inh 9.3.
Screening CCOC(=O)COc1ccc2c(=O)c(-c3ccccc3OC)coc2c1 returned gsp antagonist -24%, TRPV1 PAM 4, TRPML1 inh 5, Sfp inh 22%, gsp agonist 16%[15.4 µM] and Menin-MLL FL inh 3.1.
Screening CC(C)(C)CN1CCC(Oc2cccc(C(=O)N3CCNC(=O)C3(C)C)c2)CC1 returned gsp antagonist 7%, TRPV1 PAM 29, TRPML1 inh -9, ClpP mod -0.7%, Sfp inh 7% and gsp agonist 10%.
COc1cc(C=NOC(=O)Nc2ccccc2)cc(OC)c1OC was read as gsp antagonist 0%, TRPML1 inh -3 and gsp agonist -16%.
For O=C(CC1CCCCC1)N1CCCC(c2nc(-c3ccc(S(=O)(=O)N4CCCC4)cc3)no2)C1 (configuration not stated) the results were gsp antagonist -19%, TRPV1 PAM 8, TRPML1 inh 9, ClpP mod -0.7%, Sfp inh -11%, gsp agonist 1% and Menin-MLL FL inh 4.0.
COc1ccc(-n2cc(-c3ccccc3)c3c(N4CC(C)OC(C)C4)ncnc32)cc1 (configuration not stated) was read as gsp antagonist inconclusive, TRPV1 PAM -8, TRPML1 inh -8, ClpP mod 1.2%, Sfp inh -16%, gsp agonist 0%[15.4 µM] and Menin-MLL FL inh -3.1.
Screening CCCCCCC(=O)NNC(=O)CC(=O)Nc1ccccc1C(=O)O returned gsp antagonist -14%, TRPV1 PAM -1, TRPML1 inh 25, ClpP mod -13%, Sfp inh -15%, gsp agonist inconclusive and Menin-MLL FL inh -0.2.
For CC(=O)c1ccc(N2CCN(C(=O)CCCn3c(=S)[nH]c4cc5c(cc4c3=O)OCO5)CC2)cc1 the results were gsp antagonist -9%, TRPV1 PAM -4, TRPML1 inh 16, ClpP mod -5.9%, Sfp inh 8%, gsp agonist inconclusive and Menin-MLL FL inh 4.7.
Screening CC(C)(C)c1ccc(NC(=S)NCc2cccnc2)cc1 returned gsp antagonist -3%, TRPV1 PAM -31, TRPML1 inh -13, ClpP mod 1.3%, Sfp inh -18%, gsp agonist -5% and Menin-MLL FL inh 1.0.
Screening Cc1ccc(NC(=O)CSc2nnc(NC3CC3)s2)cc1S(=O)(=O)N1CCOCC1 returned TRPML1 inh 14, ClpP mod 3.4% and gsp agonist -24%.
For COc1cc2nc3n(c(=O)c2cc1OC)-c1cc2ccccc2cc1C(=O)NC3Cc1ccccc1 (configuration not stated) the results were TRPML1 inh 19, ClpP mod inconclusive and gsp agonist -56%.
For O=C1C=C(Nc2cccnc2)c2ccccc2C1=O the results were gsp antagonist 0%, TRPML1 inh 6, ClpP mod -3.4% and gsp agonist -11%.
Screening O=C(CSc1nnc(SCc2ccccc2)s1)N/N=C/C=C/c1ccccc1[N+](=O)[O-] returned gsp antagonist 1%, TRPV1 PAM 11, TRPML1 inh -24, ClpP mod 1.2%, Sfp inh 15%, gsp agonist -6% and Menin-MLL FL inh 1.4.
`Oc1ccc(Br)cc1/C=N/N1CCN(Cc2cccc3ccccc23)CC1` gave gsp antagonist 9%, TRPV1 PAM 4, TRPML1 inh -2, ClpP mod -1.2%, Sfp inh -2%, gsp agonist 15% and Menin-MLL FL inh 4.0.
Screening N/C(=N\OS(=O)(=O)c1ccc2ccccc2c1)c1ccccn1 returned gsp antagonist 7%, TRPV1 PAM inconclusive, TRPML1 inh 16, Sfp inh 63µM*, gsp agonist 2%[15.4 µM] and Menin-MLL FL inh -0.3.
`COC(=O)c1ccccc1NC(=O)NCc1ccco1` gave gsp antagonist 4%, TRPV1 PAM -1, TRPML1 inh -8, ClpP mod 28µM*, Sfp inh 13%, gsp agonist 18% and Menin-MLL FL inh 0.2.
Screening COc1ccc2[nH]c(C(=O)N/N=C/c3cc(OC)c(OC)c(OC)c3)cc2c1 returned gsp antagonist 0%, TRPV1 PAM 10, TRPML1 inh -28, ClpP mod -22%, Sfp inh -16%, gsp agonist 8% and Menin-MLL FL inh -1.9.
For CC1(C)Cc2c(sc(NC(=O)C(=O)N3CCCC3)c2C#N)CO1 the results were gsp antagonist -26%, TRPV1 PAM -3, TRPML1 inh 26, ClpP mod -0.3%, Sfp inh inconclusive, gsp agonist -18% and Menin-MLL FL inh 6.0.
Screening Cc1[nH]c2ccc(-c3n[nH]c(=S)n3Cc3ccccc3)cc2c1C returned gsp antagonist -1%, TRPV1 PAM 8, TRPML1 inh -5, ClpP mod -2.7%, Sfp inh -28%, gsp agonist -23% and Menin-MLL FL inh 6.4.
For CC1(C)NC(=O)N(CCCCOc2ccc(Br)cc2Cl)C1=O the results were gsp antagonist -17%, TRPV1 PAM -15, TRPML1 inh 14, ClpP mod -1.4%, Sfp inh -15%, gsp agonist 10% and Menin-MLL FL inh 2.8.
Screening Cc1ccc(NC(=O)CCC(=O)NNC(=O)c2ccco2)c(C)c1 returned gsp antagonist 2%, TRPV1 PAM 17, TRPML1 inh 1, ClpP mod -0.6%, Sfp inh 13%, gsp agonist 4% and Menin-MLL FL inh 5.9.
COc1ccc2cc(C#N)c(SCC(=O)N3CC(=O)Nc4ccccc43)nc2c1 was read as gsp antagonist 8%, TRPV1 PAM -6, TRPML1 inh -6, ClpP mod -3.4%, Sfp inh 13%, gsp agonist -1% and Menin-MLL FL inh -1.5.
For O=C(Cc1ccccc1)Nc1ccc(NC(=O)c2ccco2)cc1 the results were gsp antagonist 4%, TRPV1 PAM 0, TRPML1 inh -9, Sfp inh 14%, gsp agonist inconclusive and Menin-MLL FL inh 0.0.
Screening O=C(NCCN1CCOCC1)c1cccc(S(=O)(=O)Nc2ccc(Br)cc2)c1 returned gsp antagonist -3%, TRPV1 PAM -1, TRPML1 inh -5, ClpP mod 1.6% and gsp agonist -33%[inhibitor].
For CC(=O)N1CCN(C(=O)C(Cc2c[nH]c3ccccc23)NC(=O)c2ccccc2Cl)CC1 (configuration not stated) the results were gsp antagonist -3%, TRPV1 PAM -5, TRPML1 inh 0, Sfp inh 13%, gsp agonist 1%[15.4 µM] and Menin-MLL FL inh -6.0.
Screening COc1ccc(NC(=O)c2sc3ncn(CC(=O)N4CCN(c5ccccn5)CC4)c(=O)c3c2C)cc1OC returned gsp antagonist inconclusive, TRPV1 PAM -6, TRPML1 inh -7, ClpP mod -1.4%, Sfp inh 17%, gsp agonist -5% and Menin-MLL FL inh 2.5.
For Cc1sc2ncn(CC(=O)NCCCC(=O)Nc3ccc(C(C)C)cc3)c(=O)c2c1C the results were gsp antagonist -13%, TRPV1 PAM 9, TRPML1 inh -7, ClpP mod -1.7%, Sfp inh 11%, gsp agonist 16%[15.4 µM] and Menin-MLL FL inh 0.5.
For CC1C(=O)N(Cc2ccc([N+](=O)[O-])cc2)c2ccccc2N1C(=O)C1CC1 (configuration not stated) the results were gsp antagonist inconclusive, TRPV1 PAM 4, TRPML1 inh -25, Sfp inh 9%, gsp agonist -1% and Menin-MLL FL inh 1.9.
Screening C[C@@H]1CN([C@H](C)CO)C(=O)CCCn2nncc2CO[C@@H]1CN(C)C(=O)Cc1ccccc1 returned TRPML1 inh -1, ClpP mod 0.2% and gsp agonist 1%.
For COc1ccc(Cn2c(=O)[nH]c3cc(C(=O)NC4CCCC4)ccc3c2=O)cc1 the results were gsp antagonist 9%, TRPV1 PAM -6, ClpP mod -6.1%, Sfp inh 14%, gsp agonist 2% and Menin-MLL FL inh 0.5.
Cc1onc(-c2c(F)cccc2Cl)c1C(=O)N1CCCCC1 was read as gsp antagonist 1%, TRPV1 PAM 0, TRPML1 inh 22, ClpP mod 0.3%, Sfp inh 16% and gsp agonist 12%.
CCOCCCn1c(=O)c2ccccc2n2c(=S)[nH]nc12 was read as gsp antagonist -13%, TRPV1 PAM 1, TRPML1 inh -11, ClpP mod 7.1%, Sfp inh -19%, gsp agonist -5% and Menin-MLL FL inh -12.
Screening CC(=O)Nc1cc2c(c([N+](=O)[O-])c1C)C(C)(C)CC2(C)C returned gsp antagonist 2%, TRPML1 inh 22, ClpP mod inconclusive and gsp agonist 5%[15.4 µM].
Screening CCCCn1c(=O)n(CC(=O)Nc2ccc(C)c(Cl)c2)c(=O)c2c1ncn2Cc1ccco1 returned gsp antagonist 4%, TRPV1 PAM 2, TRPML1 inh 6, ClpP mod -1.7%, Sfp inh inconclusive, gsp agonist -22% and Menin-MLL FL inh 7.8.
For Cc1cccc(Oc2coc3cc(O)ccc3c2=O)c1 the results were gsp antagonist -16%, TRPV1 PAM -12, TRPML1 inh -11, ClpP mod 3.4%, Sfp inh 0%, gsp agonist inconclusive and Menin-MLL FL inh 0.0.
For O=C(NCC1CCCO1)c1ccc(Cn2c(=S)[nH]c3ccccc3c2=O)cc1 (configuration not stated) the results were gsp antagonist -2%, TRPV1 PAM 23, TRPML1 inh 1, ClpP mod -3.1%, Sfp inh -2%, gsp agonist -1%[15.4 µM] and Menin-MLL FL inh 0.4.
Screening COc1cc(Cl)c(C)cc1NC(=O)CN(C)Cc1cccc(OC)c1OC returned gsp antagonist inconclusive, TRPV1 PAM 5, TRPML1 inh 50, ClpP mod -0.1%, Sfp inh -15%, gsp agonist inconclusive and Menin-MLL FL inh -4.3.

Compound activity (PubChem BioAssay)
